# Bioassay records (PubChem BioAssay)
# HSV augment – enhancers of HSV replication in host cells, fold increase, host cell viability | maximum fold increase | AID 1956, 2009 | HSV replication augmentation in cells | actives 0.005% (n = 220,000);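 active = peak rise of 1.5-fold or more in the series; inconclusive = self-fluorescent or not available for retest; tested in PC3 cells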;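 note: first round at 10 µM; read as green reporter fluorescence; hits show the peak of a series up to 25 µM; 1 = signal of infected wells without compound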
# PKD1 inh – inhibitors of human PKD1 kinase, biochemical, fluorescence polarization; PKD1 kinase fluorescence polarization assay; inhibition, %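 (about 10 µM by stock and volumes)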; actives 0.056% (n = 200,000);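 active = inhibition of 50% or more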;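 note: controls were vehicle for no effect and a reference inhibitor for full effect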
# GALR2 agonist – GALR2 receptor agonists, primary screen, cell-based. Galanin receptor type 2 (Homo sapiens), O43603. GALR2-expressing cells, agonist activation read-out. activation, %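 (tested at 5 µM)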. actives 0.48% (n = 140,000). AID 803, 2007;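 active = above mean plus 3 SD of all compounds, about 5% in these data, not always enough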;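 note: 0% = vehicle buffer wells and 100% = reference agonist at full effect; tested in CHO reporter cells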
# Target sequence (O43603 whole entry, looked up): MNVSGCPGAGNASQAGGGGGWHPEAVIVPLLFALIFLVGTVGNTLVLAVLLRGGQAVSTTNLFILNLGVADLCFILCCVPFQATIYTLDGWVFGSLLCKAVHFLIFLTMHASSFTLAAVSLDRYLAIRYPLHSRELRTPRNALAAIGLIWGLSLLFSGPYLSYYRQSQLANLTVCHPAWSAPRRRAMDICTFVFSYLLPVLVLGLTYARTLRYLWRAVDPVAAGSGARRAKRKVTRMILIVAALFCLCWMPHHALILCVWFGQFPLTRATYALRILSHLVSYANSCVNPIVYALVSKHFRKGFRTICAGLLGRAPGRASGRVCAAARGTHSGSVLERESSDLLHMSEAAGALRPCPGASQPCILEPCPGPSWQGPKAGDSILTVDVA
# Insulin prom inh – inhibitors of insulin promoter-driven GFP, primary screen, imaging, TRM-6 cells (human fetal islet line), eGFP reporter, cell count; actives 0.9% (n = 130,000); reporter expression induced with tamoxifen; AID 1273, 2008; inhibition, % at 2 µM;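 active = inhibition above the mean plus 3 SD, with well images judged a real hit on visual review, cut at about 60% in these data, passing the limit was not always enough; inconclusive = inhibition over the cutoff but images rejected on review; inactive = inhibition not above the cutoff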
# RGS16-Gao – modulators of RGS16 binding to Galphao, primary screen, biochemical, human proteins, multiplexed bead flow cytometry. Regulator of G-protein signaling 16 (Homo sapiens) + Guanine nucleotide-binding protein …. actives 0.38% (n = 220,000). bead-based flow cytometry RGS16-Galphao binding, fluorescence; actives lie on both sides. AID 1441, 2008. binding response (% of control), % at 10 µM;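 active = below 25% or above 175%, edge rows of some plates excepted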;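 note: Galphao activated by GDP with aluminum fluoride before binding; 100% = wells without compound and 0% = beads without RGS; some results beyond the cut were filed as inactive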
# Target sequence (O15492 whole entry, looked up): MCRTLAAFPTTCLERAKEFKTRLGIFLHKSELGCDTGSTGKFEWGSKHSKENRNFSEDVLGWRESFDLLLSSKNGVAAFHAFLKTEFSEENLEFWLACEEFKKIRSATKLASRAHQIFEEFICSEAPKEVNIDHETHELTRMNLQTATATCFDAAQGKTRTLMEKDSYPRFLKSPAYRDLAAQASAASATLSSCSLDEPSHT
# Target sequence (P09471 whole entry, looked up): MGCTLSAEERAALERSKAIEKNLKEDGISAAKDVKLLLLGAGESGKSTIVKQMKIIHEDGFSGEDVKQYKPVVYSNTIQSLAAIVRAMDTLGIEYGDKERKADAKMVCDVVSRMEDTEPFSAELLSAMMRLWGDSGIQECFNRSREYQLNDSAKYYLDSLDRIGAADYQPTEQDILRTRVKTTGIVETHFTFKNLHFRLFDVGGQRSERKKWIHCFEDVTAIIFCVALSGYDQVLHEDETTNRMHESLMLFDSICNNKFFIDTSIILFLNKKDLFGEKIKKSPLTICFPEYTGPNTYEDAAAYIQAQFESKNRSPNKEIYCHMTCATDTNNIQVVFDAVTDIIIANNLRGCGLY
# Insulin prom inh cell count – also measured in Insulin prom inh; calls as there; normalized cell count, %; measured here: cell count, toxicity; reference of the scale not given here;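 cells exposed to compound for 48 h; stained nuclei by imaging scaled within each plate; lower means fewer cells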
# HSV augment primary fold – also measured in HSV augment; calls as there; fold increase; compound at 10 µM; measured here: primary screen fold increase 10 uM; tested in PC3 cells;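 GFP signal in the first replicate; 1 = infected wells without compound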
# An asterisk follows results filed as active; i = inactive; ? = inconclusive; . = no result given; [ ] = dose if it differs, or a comment. Rows were taken by chance, and some 1.3% of all compounds hit somewhere here.
SMILES,HSV augment,HSV augment primary fold,PKD1 inh,GALR2 agonist,Insulin prom inh,Insulin prom inh cell count,RGS16-Gao
Nc1nc(SCc2ccc(Cl)cc2Cl)n[nH]1,i,0.87,-3,-2.5,27,95,101
COC(=O)c1sc(NC(=O)C(C)C)c(C(=O)OC)c1C,i,0.97,-14,1.5,-21,128,102
COc1ccc(S(=O)(=O)NC2(C(F)(F)F)N=C(c3ccccc3)NC2=O)cc1 (configuration not stated),i,1,11,-1.2,-7,89,103
CCN(C(=O)Cn1c(=O)n(-c2cc(OC)c(OC)c(OC)c2)c(=O)c2ccccc21)c1cccc(C)c1,i,1,-4,.,0,110,98
CCCCN(c1ccccc1)c1ncnc(N)c1[N+](=O)[O-],i,0.9,-2,-2.0,.,.,108
Cc1ccc2nc(=O)c(NNc3ccccc3)cnc2c1,i,1.1,-11,-2.6,0,98,118
CCN1CCN(C(C)C(=O)NC2CCCCC2)CC1 (configuration not stated),i,1,.,.,.,.,100
O=C(Oc1cccc(C(=O)N2CCOCC2)c1)c1ccc(Br)cc1,i,0.74,-2,-1.9,26,109,106
O=C(c1ccc(Cl)cc1[N+](=O)[O-])N1CCc2ccccc2C1,i,0.99,-6,.,10,100,109
COc1cc(NC(=O)C2CC2C)c(C(=O)O)cc1OC (configuration not stated),i,1,3,0.4,-10,140,105
Cc1onc(-c2c(Cl)cccc2Cl)c1COC(=O)c1ccc(Cl)cc1,i,1.1,.,.,.,.,103
CCc1ccc(CNC(=O)c2cc3c(C)nc4ccccc4c3o2)cc1,i,1.1,-6,-0.4,.,.,97
CCCN(CCC)c1nc2ccccc2n2c(C)nnc12,i,0.72,-6,-0.5,-12,99,104
CC(=O)c1c(C)[nH]c(C(=O)N2CCN(c3ncccn3)CC2)c1C,i,0.97,-4,-1.8,.,.,108
COC(=O)c1cc2c(ccn2-c2ccc(F)cc2)n1CC(=O)C(C)(C)C,i,1,1,.,26,118,97
O=C(COc1ccc2c(c1)CCC2)N1CCN(c2ccccc2F)CC1,i,1,9,-1.7,17,105,78
Cn1nc(C(F)(F)F)c(-c2ccc(Br)cc2)c1NC(=O)Nc1ccc(F)cc1F,i,0.9,.,.,.,.,102
CN(C)CCCn1c(=O)n(CCc2ccccc2)c(=O)c2c3c(sc21)CCCCC3,i,0.64,.,.,.,.,105
COc1ccccc1C(=O)O/N=C1/CCCc2c1ccc(OC)c2[N+](=O)[O-],i,1,-8,-5.6,11,168,99
COCCCn1ccc(O)c(Cc2ccc(F)cc2)c1=O,i,0.95,-9,-1.8,39,96,101
COC(=O)c1cc([N+](=O)[O-])ccc1N1CCN(Cc2ccccc2)CC1,i,0.94,-14,0.6,19,101,96
CCCC(=O)NCCc1cc2ccc(OC)cc2[nH]c1=O,i,0.73,6,-0.9,56,102,129
Cc1ccc(C(=O)c2nocc2C(=O)c2cccs2)cc1,i,0.98,2,0.3,.,.,106
COc1ccc(C(=O)N2CC(=O)Nc3ccccc32)cc1S(=O)(=O)N1CCCC1,i,0.96,3,.,56,102,107
[O-]/C(=C(\C(=S)NCc1ccccc1)[n+]1ccccc1)c1ccc(Cl)cc1,i,1,-6,.,.,.,161
O=C(CN1CCN(S(=O)(=O)c2ccc3ccccc3c2)CC1)Nc1ccc(N2CCOCC2)cc1,i,0.89,13,0.4,.,.,127
CCn1cc(C(=O)N2CCc3ccccc32)c(=O)c2cc(S(=O)(=O)N3CC(C)CC(C)C3)ccc21 (configuration not stated),i,0.8,-6,0.2,-61,122,128
Cc1cc(C(=O)COc2ccc(F)cc2Br)c(C)n1C,i,0.98,7,.,.,.,99
COc1cc2c(cc1OC)/C(=C/c1ccc(Br)cc1)C(=O)OC2,i,0.58,-1,1.0,71*,68*,102
COC(=O)c1ccc2c(c1)N(Cc1nc(-c3cccc(C)c3)oc1C)C(=O)C1CCCN21 (configuration not stated),i,0.69,1,-2.3,.,.,99
S=C(NCc1cccnc1)NCc1cccnc1,i,1,-5,.,-36,81,38
O=C(COC(=O)CCCc1nc2ccccc2s1)Nc1ncc(Cl)cc1Cl,i,0.95,-2,-0.7,.,.,102
O=C(COc1ccccc1)NNc1nc2ccccc2s1,i,1,.,.,.,.,97
O=C(O)CN1C(=O)C2C3CC(C2C1=O)C1C(c2ccc(F)cc2)c2sc(=O)[nH]c2SC31 (configuration not stated),.,.,-1,.,-23,85,102
COc1cc(/C=C/C(=O)OCC(=O)Nc2c(C)n(C)n(-c3ccccc3)c2=O)ccc1OCC#N,i,1,2,.,-85,80,99
CC(/C=N/NC(=O)c1cc(-c2ccncc2)nc2ccccc12)=C\c1ccco1,.,.,-1,1.2,-9,26,100
O=C(N/N=C/C=C\c1ccccc1[N+](=O)[O-])c1cc(-c2ccc3ccccc3c2)n[nH]1,i,0.75,-4,0.1,-74,131,106
CCCc1cc(=O)oc2cc(Oc3ncccn3)ccc12,i,0.89,-2,-0.9,-155,102,104
COc1ccc(CCNC(=O)COc2ccc(S(=O)(=O)N3CCOCC3)cc2)cc1,i,0.86,-10,-2.3,63,46,100
O=C(N/N=C\c1cccc(Cl)c1)c1ccc(Cn2cc(Br)c([N+](=O)[O-])n2)o1,i,1,1,-1.2,0,69,107
CC1(C)NC(=O)N(CC(O)COc2ccc(-c3ccccc3)cc2)C1=O (configuration not stated),.,.,7,-2.0,-46,120,100
Cc1ccccc1CSc1nsc(N)n1,i,0.91,-13,-4.9,31,222,94
COc1ccc2occ(C(=O)c3coc4ccc(O)c(CN(C)C)c34)c2c1,i,0.73,-1,-1.1,67,42,101
N#Cc1ccccc1Sc1ccccc1C(=O)OCc1nnc(-c2ccccc2)o1,i,0.76,-8,-0.7,36,81,100
CCn1c(SCc2ccc(Cl)c(Cl)c2)nnc1C(C)NC(=O)c1ccc(OC)cc1 (configuration not stated),i,0.79,-17,0.7,.,.,97
CC(=O)c1ccc(NC(=O)Nc2ccc(Br)cc2C)cc1,i,1,-8,.,.,.,184*[activator]
COc1cccc(NC(=O)C(=O)NCCc2ccc(F)cc2)c1,i,1.1,.,.,.,.,101
O=C(NC(=S)N1CCCc2ccccc21)c1ccc(Br)cc1,i,0.99,0,-1.5,.,.,104
S=c1nc(-c2ccccc2)c(-c2ccccc2)n[nH]1,i,0.91,.,.,.,.,104
COc1ccc(-c2[nH]ncc2CN2CCN(c3ccccn3)CC2)c(OC)c1,i,1,-4,.,.,.,109

# Copied from the entries so far for reference:
SMILES,HSV augment,HSV augment primary fold,PKD1 inh,GALR2 agonist,Insulin prom inh,Insulin prom inh cell count,RGS16-Gao
O=C(NC(=S)N1CCCc2ccccc21)c1ccc(Br)cc1,i,0.99,0,-1.5,.,.,104
S=c1nc(-c2ccccc2)c(-c2ccccc2)n[nH]1,i,0.91,.,.,.,.,104
COc1ccc(-c2[nH]ncc2CN2CCN(c3ccccn3)CC2)c(OC)c1,i,1,-4,.,.,.,109

# Record cards (already shown):
# COc1ccc(-c2[nH]ncc2CN2CCN(c3ccccn3)CC2)c(OC)c1 in the list: HSV augment = i; HSV augment primary fold = 1; PKD1 inh = -4; GALR2 agonist = .; Insulin prom inh = .; Insulin prom inh cell count = .; RGS16-Gao = 109
# N#Cc1ccccc1Sc1ccccc1C(=O)OCc1nnc(-c2ccccc2)o1 in the list: HSV augment = i; HSV augment primary fold = 0.76; PKD1 inh = -8; GALR2 agonist = -0.7; Insulin prom inh = 36; Insulin prom inh cell count = 81; RGS16-Gao = 100
# S=c1nc(-c2ccccc2)c(-c2ccccc2)n[nH]1 in the list: HSV augment = i; HSV augment primary fold = 0.91; PKD1 inh = .; GALR2 agonist = .; Insulin prom inh = .; Insulin prom inh cell count = .; RGS16-Gao = 104

# Other records follow.
SMILES,HSV augment,HSV augment primary fold,PKD1 inh,GALR2 agonist,Insulin prom inh,Insulin prom inh cell count,RGS16-Gao
CCOc1ccc(NC(=O)NCCCSC2CCCCC2)cc1,i,0.76,5,-2.3,49,89,100
Cc1cccc2sc(NC(=O)CCn3cccc3)nc12,i,0.9,4,.,.,.,96
CCOC(=O)N1CCN(c2cc(N(C)CCO)c([N+](=O)[O-])c3nonc23)CC1,i,0.86,-4,.,-67,155,110
CCOC(=O)c1cnc(-n2nc(C)cc2C)nc1N1CCOCC1,i,1.1,-3,-1.0,-50,112,116
CCOC(=O)N1CCN(C(=O)C(CC(C)C)NS(=O)(=O)c2ccc3c(c2)oc(=O)n3C)CC1 (configuration not stated),i,1,-4,1.4,-31,96,107
O=C(CNS(=O)(=O)c1cccc(C(F)(F)F)c1)Nc1ccccc1F,i,0.86,0,-1.1,-38,62,100
O=C(NCCCn1ccnc1)C(=O)NCc1ccc(Cl)cc1,i,1.1,-3,-1.0,37,102,101
CCOC(=O)c1[nH]c2ccc(OC)cc2c1NC(=S)N1CCN(c2cccc(Cl)c2)CC1,i,0.85,-5,1.1,0,118,103
CCNC(=O)C1CC(=O)OC12CCCCC2 (configuration not stated),i,1,-1,0.2,42,113,101
O=C(Nc1ccc(Br)cc1)c1cccc(N2C(=O)C3C4CCC(C4)C3C2=O)c1 (configuration not stated),i,0.83,-2,-1.3,-16,108,101
O=C(CN1C(=O)c2cccc3cccc1c23)NCc1cccnc1,i,1.1,1,-1.0,-17,105,103
Cn1c(N2C(=O)CC(Cc3ccccc3)C2=O)nc2ccccc21 (configuration not stated),i,0.96,-11,-0.4,-408,51,95
O=C(Nc1ccc(Br)cc1F)c1ccc2c(c1)N(Cc1ccccc1)C(=O)CS2=O (configuration not stated),i,1,3,-1.1,.,.,100
CCC(CC)NC(=O)c1ccc2c(c1)OCCO2,i,0.97,-2,-1.5,19,111,101
CCOc1ccc(C2C=C(c3ccc(C)cc3)Nc3ncnn32)cc1 (configuration not stated),?,.,-12,-5.3,50,86,88
C=C(C)C(=O)N1CC2(CC(c3cccc(NC(=O)CC(c4ccccc4)c4ccccc4)c3)=NO2)C[C@H]1C(N)=O (some centres not stated),i,0.87,.,.,.,.,104
COc1ccccc1NC(=O)C1=C(C)Nc2nc(-c3cccs3)nn2C1c1cccc(O)c1 (configuration not stated),.,.,1,-2.7,.,.,102
COc1ccc(C2(CNC(=O)C(c3ccccc3)c3ccccc3)CCOCC2)cc1OC,i,0.9,-16,-1.6,-60,142,110
O=C(CSc1nnc(-c2cccnc2)s1)Nc1cccc(C(=O)O)c1,i,1,-10,-0.2,20,110,104
Cc1cccc(NC(=O)c2cc(Cl)nc3ccccc23)c1,.,.,-6,-1.2,7,98,292
O=C(CSc1n[nH]c(=O)n1Cc1ccco1)Nc1ccccc1,i,1.1,.,.,.,.,88
COc1ccccc1-c1nnc(SCC(=O)Nc2nc(-c3ccccc3)cs2)n1C,i,0.86,1,-1.9,.,.,105
COc1cccc(NS(=O)(=O)c2ccc(Br)s2)c1,i,0.93,-3,-1.1,-35,135,99
O=c1c2ccccc2nnn1CSc1nc2ccccc2[nH]1,i,0.98,0,-0.2,.,.,92
Cc1cc(Cl)ccc1Oc1ncnc2onc(C)c12,i,0.98,2,.,.,.,100
CC(C)Cn1c(=O)c(C(=O)NCc2ccccn2)c(O)c2ccccc21,i,0.91,-1,-1.5,.,.,106
C=CCNc1nc(NC(C)(C)CO)nc(OC)n1,i,1,-4,-0.7,12,91,175
Cc1cccc(CNC(=O)CCc2nnc(C3CCCCC3)o2)c1,i,1.1,4,.,.,.,105
